S aureus helic = blocks Staphylococcus aureus DNA helicase. inhibition, %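 (tested at about 80 µM)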. 0.05% of 120,000 active. purified S. aureus helicase, fluorescence unwinding assay; about half of the hits fall short of the stated cut;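 active means both duplicates at 50% or more, or one of them with a favoured structure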;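 further: 0% = mean of negative control wells and 100% = mean of positive control wells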
MgrA-DNA mod = alters Staphylococcus aureus MgrA binding to DNA; inhibition, %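 (about 10 µg/mL by stock and volumes)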; AID 602314; fluorescence polarization; 0.13% of 84,000 active;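 active means above 50% in either of two replicates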;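 further: 0% = protein plus DNA without compound and 100% = DNA alone without protein; higher means less MgrA bound to DNA so lower polarization; one replicate is shown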
The depositor's hits bear a star; i = inactive; nt = not tested or not shown; & = joins results of further samples. This is a subset. The share of hits here may be higher or lower than overall.

item	S aureus helic	MgrA-DNA mod	SMILES
1	i	nt	N#CC(C#N)=C1C=C(c2ccc(O)cc2)Oc2ccccc21
2	-4	3.1	COC(=O)c1c(NC(=O)C(C)C)sc2c1CCC2
3	20	nt	Cc1ccc2c(=O)cc(C(=O)N(Cc3ccccc3)Cc3ccco3)oc2c1
4	nt	-0.8	Clc1ncc(CN2CCc3ccccc3C2)s1
5	9	1.1	O=C(NC1CCS(=O)(=O)C1)c1ccccc1Cl (stereo not drawn)
6	-15	nt	OC(CNCc1ccccc1)Cn1c2c(c3ccccc31)CCCC2 (stereo not drawn)
7	-5	nt	Cc1ccc(CNC(=O)c2cc3sccc3n2C)cc1
8	-7	nt	COC(=O)CCn1c(=O)c2cccn2c2cccnc21
9	nt	4.1	CCOC(=O)C1=C(C)NC(=S)NC1c1cccc(Br)c1 (stereo not drawn)
10	2	0.8	Clc1cccc(CNNc2nc(N3CCCCC3)nc(N3CCCCC3)n2)c1
11	nt	-0.7	CC1=NCCN1CCNC(=O)Nc1ccc(C(C)(C)C)cc1
12	24	nt	COc1ccccc1CNc1ncnc2nc[nH]c12
13	8	-1.2	CCOC(=O)CSc1nc2c(sc(=S)n2-c2ccccc2C)c(=O)n1-c1ccc(F)cc1
14	7	nt	COc1ccc(-n2cc(-c3ccc(OC)c(OC)c3)[nH]c2=O)cc1
15	nt	0.3	CC1C(=O)N(C)c2ccc(S(=O)(=O)N3CCOCC3)cc21 (stereo not drawn)
16	1	nt	Cc1cc(N/C(=N\S(=O)(=O)c2ccc(F)cc2F)c2ccccc2)no1
17	-6	8.8	Cc1ccc2n1CCNC2C(C)C (stereo not drawn)
18	-7	0.8	C#CCN1CCc2cc(OC)c(OC)cc2C1C (stereo not drawn)
19	20	nt	CCCCN=c1scc(-c2ccco2)n1/N=C/c1c[nH]c2ccccc12
20	nt	0.2	NC(=NC(=O)CCn1c(=O)oc2ccccc21)c1cc(Cl)cc(Cl)c1
21	5	-0.4	CNS(=O)(=O)c1ccc(C)c(-c2nnc3c4ccccc4c(C)nn23)c1
22	4	1.6	CS(=O)(=O)NN1C(=O)c2ccccc2NC12CCCCC2
23	0	0.1	CC12CC3CC(C1)CC(C(=O)O)(C3)C2
24	19	nt	NC(=O)c1ccc(NC(=O)C2CCCCC2)cc1
25	-16	-0.1	Cc1[nH]c(=O)[nH]c(=O)c1S(=O)(=O)N1CCN(c2ccccc2)CC1
26	-7	nt	CC(C)N(c1ccccc1)c1ccc(NC(=O)C2CCC2)cc1
27	-3	nt	COc1ccc(C(=O)NCCc2cc3c(OC)ccc(OC)c3[nH]c2=O)cc1
28	17	1.1	O=S(=O)(NCCc1ccccc1)c1ccc(S(=O)(=O)N2CCCCC2)cc1
29	2	-5.0	Nc1cc(=O)[nH]c(=S)n1-c1ccc(Cl)cc1
30	nt	-2.1	N#CC1=C(SCC(=O)Nc2ccc(Br)cc2)NC(=O)CC1c1cccc(Cl)c1 (stereo not drawn)

Three entries picked at random from the list so far, as already listed:
item	S aureus helic	MgrA-DNA mod	SMILES
27	-3	nt	COc1ccc(C(=O)NCCc2cc3c(OC)ccc(OC)c3[nH]c2=O)cc1
23	0	0.1	CC12CC3CC(C1)CC(C(=O)O)(C3)C2
26	-7	nt	CC(C)N(c1ccccc1)c1ccc(NC(=O)C2CCC2)cc1

Additional entries:
item	S aureus helic	MgrA-DNA mod	SMILES
31	13	nt	COc1ccc(-c2c(C)sc(=NCCO)n2-c2ccccc2)cc1
32	-2	nt	Cc1cc(NC(=O)c2ccc(Br)o2)nc2c1c(=O)oc1ccccc12
33	nt	-0.3	O=C(O)c1ccc(S(=O)(=O)c2cc(Cl)ccc2Cl)c([N+](=O)[O-])c1
34	23	nt	CC1=Nn2c(nc3sc(-c4ccccc4)cc3c2=O)SC1
35	7	-0.1	CCC(=O)Nc1ccc(C(=O)OCC(=O)C(C)(C)C)cc1
36	-9	nt	COC(=O)c1c(O)cc(=O)n2c1CCCCC2
37	15	-0.6	COc1ccc(CCCC(=O)NN=Cc2ccco2)cc1
38	-3	nt	O=C(c1cc2ccccc2oc1=O)N(Cc1ccc(Cl)cc1)C1CCS(=O)(=O)C1 (stereo not drawn)
39	-3	nt	Clc1cccc(N2CCN(c3nnc4n3CCCCC4)CC2)c1
40	nt	0.2	CN=C(Nc1cccc(C(F)(F)F)c1)c1ccncc1
41	2	-1.5	Cc1[nH]c(=O)[nH]c(=O)c1NC(=O)c1ccccc1
42	0	nt	O=C(O)c1ccccc1SCC(=O)N1CCN(Cc2ccccc2)CC1
43	2	-0.8	O=C(O)CSc1ncnc2ccccc12
44	-8	nt	N#CC1=CN(Cc2ccccc2)C=C(C=Nc2ccccc2)C1
45	1	-0.8	COC(=O)CN(c1cccc2ccccc12)S(C)(=O)=O
46	3	nt	CSc1ncc(C(=O)Nc2ccccc2N2CCN(C)CC2)n1-c1ccccc1
47	nt	-3.1	O=C(O)CSCC(=O)Nc1cccc(F)c1C(=O)O
48	16	nt	O=C(Nc1ccccc1O)c1cc2cc(Br)ccc2oc1=O
49	12	nt	O=C(O)c1ccccc1C(=O)Nc1cccc(Cl)c1
50	13	-1.9	O=C(O)c1ccc2nsnc2c1
51	10	-0.1	Cc1cc(C)cc(NC(=O)CCCn2c(=O)c3cccn3c3cccnc32)c1
52	8	-5.1	CCOc1cc(CCC(=O)O)on1
53	11	2.2	O=C(NCc1ccncc1)C1c2ccccc2Oc2ccccc21
54	nt	1.2	NNC(=O)CNC(=O)c1c(F)cccc1F
55	nt	1.8	CSC1=NCCCN1S(=O)(=O)c1ccc(Cl)cc1
56	-9	0.6	CSc1ccccc1C(=O)NC1CC(C)(C)NC(C)(C)C1
57	nt	1.9	CN(C)C(=O)c1cnc(-c2ccccc2)nc1-c1ccccc1
58	-29	nt	CCCNC(=O)c1cc(S(=O)(=O)N2CCCCC2)c[nH]1
59	-21	nt	COc1ccc(/C(O)=C(/C#N)c2nc3ccccc3c(=O)[nH]2)cc1
60	6	nt	COc1ccc(-n2c(C)nc3cc(C(=O)O)ccc32)cc1
61	10	-4.2	CCCCNC(=O)Cn1c(-c2ccc(C)cc2)noc1=O
62	nt	0.1	O=c1cc(-c2cc3ccccc3o2)oc2ccccc12
63	10	nt	CC(Oc1ccc2c3c(c(=O)oc2c1)CCC3)C(=O)OC1CCCCC1 (stereo not drawn)
64	12	-1.9	C=C1c2cc(C)cc(C)c2NC(=O)N1CC
65	-7	-1.6	O=C(NC(OCc1ccccc1)C(=O)c1ccccc1)c1ccccc1 (stereo not drawn)
66	-9	-1.0	O=C(Oc1ccccc1)c1ccc(-n2cnnn2)cc1
67	-9	nt	COc1ccccc1OCC(=O)NCCCn1ccnc1
68	7	nt	COCCn1c(C)cc(C(=O)COC(=O)c2cc3c(s2)CCCCC3)c1C
69	12	0.5	CC1CCC(C(C)C)C(OC(=O)NC(=O)C(F)(F)F)C1 (stereo not drawn)
70	15	-0.9	CCN(CC)c1nc(OCC(F)(F)F)nc(N(c2ccccc2)c2ccccc2)n1
71	24	1.3	CCOc1nc(SC)nc2sc3c(c12)CCN(C)C3
72	-4	nt	CC1(C)Cc2[nH]c(=O)c(C(=O)O)cc2CO1
73	17	0.7	Cc1ccc(N2C(=O)CSC2/C=C/c2ccccc2)cc1 (stereo not drawn)
74	-7	nt	Cc1ccc(OCC(=O)NCc2ccco2)c(C(C)(C)C)c1
75	nt	-2.2	O=C(Oc1ccccc1N1CCOCC1)c1ccccc1
76	10	-1.2	CC1(C)N2CN(CCCCN3CN4N(C3)C4(C)C)CN21 (stereo not drawn)
77	-1	nt	CC(=O)Nc1ccc(S(=O)(=O)NCc2ccc3[nH]c4c(c3c2)CCCC4)cc1
78	nt	3.3	CC1CC(=O)Nc2ccccc2N1S(=O)(=O)c1cccs1 (stereo not drawn)
79	15	nt	COCC(C)NC(=O)c1cc(-c2ccc(OC)c(OC)c2)no1 (stereo not drawn)
80	-30	nt	CCOC(=O)c1sc2nc(COC(=O)c3ccc(OCc4c(C)noc4C)cc3)[nH]c(=O)c2c1C

Continuation:
item	S aureus helic	MgrA-DNA mod	SMILES
81	3	5.3	Cc1ccc(S(=O)(=O)/N=C/c2cccnc2)cc1
82	nt	-0.4	CCOC(=O)C(N)CSC1CC(=O)N(c2ccccc2)C1=O (stereo not drawn)
83	5	-3.2	CCCCOc1c(Cl)cc(CNC(C)(C)CO)cc1OCC
84	1	nt	CN(C)C(=O)c1ccc(C2SCC(=O)N2CCc2ccccc2)cc1 (stereo not drawn)
85	9	2.1	CC(C)(C)C1C/C(=C/c2ccccn2)C(=O)/C(=C/c2ccccn2)C1 (stereo not drawn)
86	nt	-2.4	CC(C)(C)c1cc(-c2cc(C(F)(F)F)nc(N)n2)c2c(c1)C(C)(C)CC2
87	nt	5.4&1.2	NCc1ccc(S(N)(=O)=O)cc1
88	0	-0.8	CN1C(C(=O)N2CCCc3ccccc32)=CC(c2cccs2)=NS1(=O)=O
89	6	0.2	O=C1CC(/C=C/c2ccccc2)=Nc2ccccc2N1
90	nt	-3.4	CS(=O)(=NC(=S)NC(=O)Oc1ccccc1)c1ccccc1 (stereo not drawn)

Profiles, looked up by structure. Values in the order: S aureus helic | MgrA-DNA mod
CCCCOc1c(Cl)cc(CNC(C)(C)CO)cc1OCC in the list: 5 | -3.2
CN(C)C(=O)c1ccc(C2SCC(=O)N2CCc2ccccc2)cc1 (stereo not drawn) in the list: 1 | nt

(further entries)
item	S aureus helic	MgrA-DNA mod	SMILES
91	25	nt	O=C(COCc1cc(-c2ccc(F)cc2)on1)NC1CCCc2ccccc21 (stereo not drawn)
92	19	nt	CC(C)N(Cc1ccccc1)C(c1cccs1)c1c(O)[nH]c(=O)[nH]c1=O (stereo not drawn)
93	nt	-0.7	c1ccc(COc2ccc(C3Oc4ccccc4C4CC(c5cccc6ccccc56)=NN43)cc2)cc1 (stereo not drawn)
94	-9	nt	O=C(CSc1nnc(Nc2ccccc2)s1)c1ccc(S(=O)(=O)N2CCCC2)cc1
95	13	nt	CC(=O)NN1C(=O)c2ccccc2NC1c1ccco1 (stereo not drawn)
96	2	0.6	CC1CCN(C(=O)/C=C/c2c(Cl)nc3sccn23)CC1
97	1	1.0	Cc1cc(NC(=O)c2ccccc2C)no1
98	30	nt	CN(C(=O)COc1ccccc1)c1ccc(C(O)(C(F)(F)F)C(F)(F)F)cc1
99	2	nt	Clc1ccc2c(c1)-c1[nH]ncc1CS2
100	4	nt	Cc1ccccc1/C=N/O

Arranged by count of non-hydrogen atoms (lowest first): some entries from above.
item	S aureus helic	MgrA-DNA mod	SMILES
100	4	nt	Cc1ccccc1/C=N/O
99	2	nt	Clc1ccc2c(c1)-c1[nH]ncc1CS2
97	1	1.0	Cc1cc(NC(=O)c2ccccc2C)no1
96	2	0.6	CC1CCN(C(=O)/C=C/c2c(Cl)nc3sccn23)CC1
92	19	nt	CC(C)N(Cc1ccccc1)C(c1cccs1)c1c(O)[nH]c(=O)[nH]c1=O (stereo not drawn)
98	30	nt	CN(C(=O)COc1ccccc1)c1ccc(C(O)(C(F)(F)F)C(F)(F)F)cc1

(more compounds)
item	S aureus helic	MgrA-DNA mod	SMILES
101	-4	nt	O=C(NCCSc1c[nH]c2ccccc12)c1ccc(Br)o1
102	-4	nt	COc1ccc(NC(=O)CC#N)cc1
103	4	-1.9	COCCCNC1CC(=O)N(c2ccc(OC)cc2)C1=O (stereo not drawn)
104	nt	-0.9	COc1ccc(/C=C2\SC(=S)N(CCC(=O)NN3CCN(C)CC3)C2=O)cc1
105	7	nt	Cc1ccc(-c2cn(-c3ccc(C)cc3)c(=N)s2)cc1
106	-5	nt	COc1ccc(-c2ncnn2-c2sc3c(c2C#N)CCCC3)cc1
107	1	nt	CC(=O)Nc1cccc(NC(=O)CCn2c(=O)sc3ccccc32)c1
108	-4	nt	CCc1cccc(C)c1N(C(=O)Cn1c(COC)nc2ccccc21)C(C)COC (stereo not drawn)
109	nt	-7.8	CC(=O)Oc1ccc(C2=NN(c3ccccc3)C(c3ccccc3)C2)cc1 (stereo not drawn)
110	nt	3.2&5.5	O=C(O)c1ccccc1OP(=O)(O)O
111	nt	-2.7	N#CC(C(=O)c1ccccc1)=C1SCCCS1
112	nt	-2.2	NC(=S)c1ccc2nonc2c1
113	nt	-7.6	O=C(O)C12CCCC(C(=O)O)(CCC1)C2
114	11	0.4	NC1=NC(c2ccccc2C(F)(F)F)N(c2ccc(F)c(Cl)c2)C(N)=N1 (stereo not drawn)
115	0	nt	O=C1c2cccnc2C(=O)N1Cc1ccc(S(=O)(=O)NCc2ccco2)cc1
116	nt	6.4	COc1ccc(CC2c3cc(OC)c(OC)cc3CC[N+]2(C)CCC(=O)OCCCCCOC(=O)CC[N+]2(C)CCc3cc(OC)c(OC)cc3C2Cc2ccc(OC)c(OC)c2)cc1OC (stereo not drawn)
117	12	0.9	Cc1ccccc1NC(=S)NC(=O)C(C)C
118	nt	-1.4	N#CC(=S)Nc1ccc(F)cc1
119	5	nt	O=C(N/N=C(\Cc1ncc[nH]1)c1ccccc1)c1cccs1
120	16	nt	CC(Sc1nnc(Cc2cccs2)n1C)C(=O)c1ccc(NS(C)(=O)=O)cc1 (stereo not drawn)
121	8	nt	Cc1n[nH]c(=O)nc1NC1CCCCC1
122	9	nt	Nc1cc(=O)[nH]c(SCCCCN2C(=O)c3ccccc3C2=O)n1
123	16	nt	O=C1/C(=C\C=C\c2ccco2)SC(=S)N1NS(=O)(=O)c1ccccc1
124	nt	-1.4	CS(=O)(=O)c1sc(Br)c2c1C(=O)CCC2
125	9	0.9	CCOC(=O)c1sc(NC(=S)NC(=O)c2cc3ccccc3o2)nc1C
126	9	1.2	CCOc1ccc(CN2CCC(C(=O)NCC3CCCO3)CC2)cc1OC (stereo not drawn)
127	nt	-1.4	CCOC(=O)c1cc2ncc(C(F)(F)F)cc2s1
128	4	-2.3	COc1ccc(S(=O)(=O)C(C)(C)C)cc1
129	4	nt	COc1ccc(C)cc1N1CC(C(=O)Nc2cc(Cl)ccc2N2CCN(C)CC2)CC1=O (stereo not drawn)
130	-11	1.4	CCOC(=O)C1CCN(C(=O)CSc2ccccc2Cl)CC1
